Assay outcomes deposited in PubChem by several laboratories.
Rce1 inhib: yeast Ras-converting enzyme inhibition. Q03530. 0.27% of 290,000 active. calls only. yeast membranes, quenched prenylated peptide cleavage fluorescence;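 active = fall in fluorescence gain of 50% or more versus controls, with final raw signal at or below 3038400; inconclusive = same 50% fall but final raw signal above 3038400; inactive = fall in fluorescence gain under 50%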;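 also: plate controls were neutral control wells for no effect and wells lacking membranes for full effect; tested at 10 µM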
Target sequence (Q03530 whole entry, looked up): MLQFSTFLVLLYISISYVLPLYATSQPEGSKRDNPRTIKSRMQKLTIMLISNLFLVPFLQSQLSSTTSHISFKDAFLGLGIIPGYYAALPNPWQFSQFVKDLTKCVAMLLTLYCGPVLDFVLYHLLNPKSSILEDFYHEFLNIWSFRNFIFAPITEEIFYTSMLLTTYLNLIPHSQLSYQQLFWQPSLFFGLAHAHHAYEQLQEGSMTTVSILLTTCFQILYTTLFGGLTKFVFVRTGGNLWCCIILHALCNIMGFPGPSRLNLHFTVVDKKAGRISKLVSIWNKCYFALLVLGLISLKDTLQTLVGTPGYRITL
UUG fidelity: alters start codon recognition fidelity in yeast. activity score, % at 18.7 µM. 0.13% of 350,000 active. S. cerevisiae UUG-firefly luciferase reporter, luminescence/redox ratio;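 active = replicate mean at a twofold rise or more, about +100% in these data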;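 also: firefly luciferase made from a UUG start codon reports start codon fidelity; reporter light over untreated wells divided by growth signal over untreated wells; some hits fall short of that in this replicate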
Env fusion inh: HIV envelope-mediated fusion inhibition | inhibition, % at 12.3 µM | AID 651610 | 1.1% of 360,000 active | HeLa-JRFL Env/CEM21 cell fusion, luciferase;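 active = mean replicate inhibition score of at least 50 and every replicate individually at or above 50; inconclusive = only one of the two criteria met; inactive = mean below 50 and not all replicates reaching 50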;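 also: 0% = plate neutral controls and 100% = maraviroc near 300 nM; one replicate is shown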
PABP polyA inh: PABP-poly(A) binding inhibition; PABP-poly(A) RNA binding, fluorescence polarization; P11940; 1% of 290,000 active; AID 2014; inhibition, % at 35 µM;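 active = 50% or more with normal probe brightness, or confirmed in later tests; inconclusive = above 50% with abnormal brightness, or retests that disagree; inactive = below 50% or failed in later tests; about a fifth of its hits are not listed in these tables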;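 also: calls also rest on retests at 20 µM and on dose response follow-up; controls were probe without protein and protein plus probe with vehicle; some compounds called inactive have numbers as strong as hits; many hits fall short of the cut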
eIF4H FP inh: inhibitors of RNA binding by human eIF4H. Q15056. eIF4H fluorescence polarization binding assay. inhibition, % at 35 µM. 0.94% of 290,000 active. AID 2012;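 active = 50% or more with normal probe brightness, or confirmed in later tests; inconclusive = above 50% with abnormal brightness, or retests that disagree; inactive = below 50% or failed in later tests; about a fifth of its hits are not listed in these tables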;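 also: calls also rest on retests at 20 µM and on dose response follow-up; 0% = protein and probe with vehicle and 100% = probe without protein; strong numbers were not always called active; many hits fall short of the cut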
CSC inhib: blocks cancer stem cells; 1.1% of 300,000 active; AID 2717; inhibition, % at 7.5 µM; cancer stem cell-like cells viability, luminescence;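 active = mean at 75% or more and at least half the replicates too; inconclusive = mean and replicates disagree; tested in HMLE shEcad cells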;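 also: 0% = median of negative and 100% = median of positive control wells; the first replicate is given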
MT1-MMP act inh: MT1-MMP (human) activation inhibition | P50281 | HT1080 RFP-PRO-GFP cells, GFP/RFP ratio fluorescence, overnight; percent of plate control window, DMSO zero | GFP/RFP ratio change, % at 20 µM | 0.061% of 360,000 active;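 active = GFP/RFP ratio change of at least 30% with cell ATP level not reduced by more than half and red fluorescence within 50% of control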; also: strong numbers were not always called active
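Assay system: HT1080 cells carrying an RFP-PRO-GFP reporter | Dosing: Single dose of 20 µM compound, 1% DMSO final | Incubation: Cells overnight before dosing, compound overnight, 37 °C, 5% CO2 | Evaluation: GFP/RFP fluorescence ratio | Control set: DMSO and RFP-L50D-GFP cell wells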
eIF4H FP inh retest: second read-out of eIF4H FP inh, no call of its own (marks repeat the call); inhibition, %; compound at 20 µM; confirmation average;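 mean of two retest wells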
PABP polyA inh retest: recorded beside PABP polyA inh, whose call it bears; inhibition, %; compound at 20 µM; confirmation repeats;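 mean of two retest wells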
MT1-MMP act inh RFP: recorded beside MT1-MMP act inh, whose call it bears; RFP signal change, %; measured here: RFP expression control read;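 0 = vehicle wells; hits needed this value within 50% of zero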
Numbers without * were called inactive; i = inactive; ? = inconclusive; . = not tested or not shown; & = joins results of further samples.

A first look, 2 compounds:
SMILES | Rce1 inhib | UUG fidelity | Env fusion inh | PABP polyA inh | eIF4H FP inh | CSC inhib | MT1-MMP act inh | MT1-MMP act inh RFP | others
COc1ccc(C(=O)Nc2nc3nccc(-c4ccccc4)n3n2)cc1 | i | . | -8 | -2 | 6 | 30 | 2 | 6
CCOC(=O)N1CCC(=C(C#N)C(=O)Nc2cc(OC)ccc2OC)CC1 | i | -18 | . | -9 | 0 | 2 | -1 | 4

The list itself, from the first entry:
SMILES | Rce1 inhib | UUG fidelity | Env fusion inh | PABP polyA inh | eIF4H FP inh | CSC inhib | MT1-MMP act inh | MT1-MMP act inh RFP | others
COc1ccc(C(=O)Nc2nc3nccc(-c4ccccc4)n3n2)cc1 | i | . | -8 | -2 | 6 | 30 | 2 | 6
CCOC(=O)N1CCC(=C(C#N)C(=O)Nc2cc(OC)ccc2OC)CC1 | i | -18 | . | -9 | 0 | 2 | -1 | 4
CC(=O)c1cccc(NC(=O)CSc2ncc(C(=O)Nc3ccccc3)c(=O)n2C)c1 | i | -21 | -9 | . | . | 34 | -3 | 2
COc1ccc(/C=C/C(=O)NCCn2c(C)cc3ccccc32)cc1OC | i | -30 | -37 | 1 | 0 | -12 | 4 | -3
CN1CCN(S(=O)(=O)c2cnccc2N2CCN(c3cccc(Cl)c3)CC2)CC1 | i | -16 | 26 | -10 | ? | -13 | -3 | -1
O=C(NCc1cccc(C(F)(F)F)c1)N1CCN(C(=O)c2ccccc2)CC1 | . | -15 | . | . | . | 2 | 1 | -1
CC1(NC(=O)COc2ccccc2-c2ccccc2)CCS(=O)(=O)C1 (centres undefined) | i | -12 | -24 | 6 | -8 | 2 | 5 | -1
C[C@@H]1CN([C@H](C)CO)S(=O)(=O)c2ccc(-c3cccc(C(=O)N(C)C)c3)cc2O[C@H]1CN(C)C(=O)Nc1ccc(F)cc1 | . | 15&10&15 | -17 | . | . | . | 0 | 1
C=CCOC(=O)C1CC=CCC1C(=O)Oc1ccc(F)cc1F (centres undefined) | i | -10 | -18 | 2 | 5 | . | 16 | 1
CC(C)(CO)NC(=O)CC1C(=O)NCCN1Cc1ccc(-c2ccccc2)cc1 (centres undefined) | i | -19 | 20 | -3 | -13 | -7 | 2 | 3
CCNC(=O)C1(C)CCCN(C(=O)c2oc3ccccc3c2C)C1 (centres undefined) | . | -11 | 11 | . | . | . | -1 | 3
CC1CCc2c(sc(NC(=O)Cn3nc(C(=O)O)c4ccccc4c3=O)c2C#N)C1 (centres undefined) | i | . | -19 | -14 | -2 | -5 | 5 | -4
CCC1CCCCN1S(=O)(=O)c1ccc2c(c1)CCN2C(C)=O (centres undefined) | i | 8 | 0 | 3 | -3 | -3 | 0 | 5
Cc1cc(/C=N/NC(N)=O)c(C)n1C1CCCCC1 | i | -13 | -3 | 0 | 10 | -16 | 6 | 12
CCN(CC)S(=O)(=O)c1ccc(NC(=O)c2ccccn2)cc1 | i | -19 | -113 | 9 | 0 | 11 | 5 | -1
CC(C)(C)NC(=O)C1Cc2ccccc2CN1S(=O)(=O)c1ccc(F)cc1 (centres undefined) | i | . | 12 | 40 | 2 | -14 | -1 | -4
COc1ccccc1NC(=S)N1CCc2cc(OC)c(OC)cc2C1 | i | . | 2 | 8 | -1 | 11 | -1 | -4
O=C(Nc1ccc2c(c1)nc1n2CCOC1)C1CCCCC1 | i | -19 | -113 | -4 | -8 | 7 | 5 | 11
CCOC(=O)N1CCN(C(=O)CCC(=O)c2ccc(OCC)cc2)CC1 | i | 0 | 6 | 9 | -12 | -8 | 0 | 2
CCOc1ccc(N(CC(=O)NC2CCCC2)C(=O)CCCC(=O)Nc2ccccn2)cc1 | i | -2 | -33 | -5 | 3 | 1 | -3 | -2
CCN(CC)C(=O)COc1ccc(C=O)cc1OC | i | -2 | . | 1 | 2 | . | 1 | 5
CC1CN(C(=O)c2cnn3c(C(F)F)cc(-c4ccccc4)nc23)CC(C)O1 (centres undefined) | i | -2 | -3 | -4 | 6 | -3 | 1 | -2
CC(C)CNc1nc(N)c([N+](=O)[O-])c(NCC2CCCO2)n1 (centres undefined) | i | 18 | -8 | 0 | 8 | -7 | 9 | 5
Cc1csc2nc(O)c(C(=O)NCc3ccc4c(c3)OCO4)c(=O)n12 | i | 13 | . | . | . | 12 | 4 | 4
O=C(Nc1cccc2nsnc12)c1cccnc1 | i | . | -8 | 9 | 0 | 18 | 1 | 5
SMILES | Rce1 inhib | UUG fidelity | Env fusion inh | PABP polyA inh | eIF4H FP inh | CSC inhib | MT1-MMP act inh | MT1-MMP act inh RFP | others
O=C(c1cc2ccccc2o1)N1CCN(c2cccc(C(F)(F)F)c2)CC1 | i | -22 | -9 | 13 | -1 | -11 | 4 | 4
COc1ccccc1CNC(=O)COc1cc2c(c3oc(=O)cc(C)c13)CCC(C)(C)O2 | i | 2 | . | -6 | -3 | 2 | -3 | -4
CN(C(=O)CC1C(=O)NCCN1Cc1ccc(F)c(F)c1)C1CCCCC1 (centres undefined) | i | -4 | 17 | 0 | -9 | 16 | 3 | 5
CCn1cc(/C=N\NC(=O)c2ccc3c(c2)c(C)c(C)n3Cc2ccccc2)c(C)n1 | i | -13 | . | -14 | -10 | -7 | 1 | 4
COc1ccc(NC(=O)N2CCN(C(=O)C3CCCO3)CC2)cc1 (centres undefined) | i | -5 | -1 | -13 | -1 | -7 | 0 | 4
COc1ccc(NC(=O)c2cccc(NC(=O)c3ccccc3)c2)c(OC)c1 | i | 1 | -22 | 6 | 1 | 0 | -1 | 0
CC(=O)N(C)C1=C(O)c2ccccc2C(=O)C1=O | i | -27 | -30 | 10 | -12 | -14 | 4 | 4
CCCOc1ccc(/C=N/Nc2cc(N3CCOCC3)ncn2)c(O)c1 | i | -15 | 67* | 2 | 16 | 98* | -1 | -15
CCC(C)c1ccccc1NC(=O)c1cc(C)no1 (centres undefined) | i | -12 | 7 | 1 | 9 | -3 | 5 | 3
CC(C)CNc1ncnc2c1ncn2[C@H]1CN(Cc2ccc(C(=O)O)cc2)C[C@@H](CO)O1 | . | -6 | -26 | . | . | . | 3 | 6
O=C1Nc2ccccc2N(O)N1c1cc(-c2ccccc2Cl)no1 | i | . | -78 | -5 | -4 | . | -2 | 1
CC(C)c1ccc(NC(=S)NCCc2c[nH]c3ccccc23)cc1 | i | -15 | 34 | -4 | 1 | 59 | 4 | -1
CN(CC(=O)Nn1cnnc1)S(=O)(=O)c1cc(Cl)ccc1Cl | i | -10 | -4 | -9 | -6 | -2 | 0 | 1
CCn1cc(C(=O)NCCCN2CCCC(C)C2)c(=O)c2cc(S(=O)(=O)N3CCOCC3)ccc21 (centres undefined) | i | -13 | 4 | 8 | -7 | 2 | 6 | 0
CCCNC(=S)Nc1ccc(S(N)(=O)=O)cc1 | i | . | 19 | -2 | -2 | -7 | 4 | 1
CCCCCCN(C(=O)CCCCCN1C(=O)NC(c2ccc(-c3ccccc3)cc2)C(C(=O)OCc2ccccc2)=C1C)C(C(=O)NCCCC)c1ccccn1 (centres undefined) | i | . | 27 | -8 | -3 | . | . | .
O=C(c1ccc(-n2cncn2)c([N+](=O)[O-])c1)N1CCN(S(=O)(=O)c2ccccc2F)CC1 | i | . | -3 | . | . | -13 | 5 | 1
Cc1ccc2nc(NC(=O)c3ccccn3)sc2c1 | i | -74 | 37 | 15 | 14 | 84* | 5 | -3
O=C(NC1CCCCC1)C1CCN(S(=O)(=O)c2cccc3cccnc23)CC1 | i | -4 | -12 | -2 | -13 | -5 | -3 | 4
Cc1ccc(NC2c3ncccc3C(=O)N2Cc2ccc(F)cc2)cc1 (centres undefined) | i | -7 | . | -1 | 2 | -7 | 0 | -3
O=c1c2oc3ccccc3c2[nH]c(=S)n1-c1ccccc1 | i | -9 | 3 | -18 | 4 | 4 | 0 | 1
CCSc1ncc(Cl)c(C(=O)Nc2ccccc2C)n1 | i | -1 | 12 | -1 | -8 | 7 | -1 | -1
Cc1cccc(OCc2n[nH]c(=S)n2C2CCCCC2)c1 | i | -14 | . | -5 | 9 | 36 | 1 | 0
CCCC(NC(=O)c1ccccc1)c1nc2ccccc2n1Cc1ccc(C(=O)OC)o1 (centres undefined) | i | -13 | . | 16 | -10 | -11 | -5 | -8
CCOC(=O)C1(CCc2ccccc2)CCN(C(=O)Cc2nonc2C)CC1 | i | . | 3 | 4 | -4 | 2 | . | .

6 compounds drawn at random from those above, as already listed:
SMILES | Rce1 inhib | UUG fidelity | Env fusion inh | PABP polyA inh | eIF4H FP inh | CSC inhib | MT1-MMP act inh | MT1-MMP act inh RFP | others
Cc1ccc2nc(NC(=O)c3ccccn3)sc2c1 | i | -74 | 37 | 15 | 14 | 84* | 5 | -3
CC(C)CNc1ncnc2c1ncn2[C@H]1CN(Cc2ccc(C(=O)O)cc2)C[C@@H](CO)O1 | . | -6 | -26 | . | . | . | 3 | 6
CN(CC(=O)Nn1cnnc1)S(=O)(=O)c1cc(Cl)ccc1Cl | i | -10 | -4 | -9 | -6 | -2 | 0 | 1
CCCC(NC(=O)c1ccccc1)c1nc2ccccc2n1Cc1ccc(C(=O)OC)o1 (centres undefined) | i | -13 | . | 16 | -10 | -11 | -5 | -8
CCSc1ncc(Cl)c(C(=O)Nc2ccccc2C)n1 | i | -1 | 12 | -1 | -8 | 7 | -1 | -1
O=C1Nc2ccccc2N(O)N1c1cc(-c2ccccc2Cl)no1 | i | . | -78 | -5 | -4 | . | -2 | 1

Following part.
SMILES | Rce1 inhib | UUG fidelity | Env fusion inh | PABP polyA inh | eIF4H FP inh | CSC inhib | MT1-MMP act inh | MT1-MMP act inh RFP | others
S=C1Nc2ccccc2CS1 | . | -12 | 7 | . | . | . | 10 | -1
NC(=S)NNC(=O)c1cccc(Br)c1 | i | . | . | 0 | -1 | -2 | . | .
O=C(Nc1ccc(Cl)cc1)Nc1nnc(CSCc2ccccc2Cl)s1 | i | . | 49 | 6 | -14 | 37 | 0 | -14
CCOC(=O)c1c(C)[nH]c(-c2csc(N)n2)c1C | . | . | -200 | -9 | 84 | . | 12 | 7 | eIF4H FP inh retest=-13;PABP polyA inh retest=10
COc1cccc(/C=C/C(=O)OCC(=O)Nc2ccc(Cl)cn2)c1 | i | . | . | 1 | 52 | 2 | 3 | 3 | eIF4H FP inh retest=2;PABP polyA inh retest=4
O=c1c2cccnc2n(-c2ccccc2)n1Cc1c(Cl)cccc1Cl | i | . | -15 | -10 | 9 | 30 | 1 | 5
CN(C)c1nc(N/N=C\c2ccc(Cl)c([N+](=O)[O-])c2)nc(Nc2ccc(F)cc2)n1 | i | 2 | . | . | . | 48 | 21 | -1
Nc1nc2c(nc(SCc3ccccc3Br)n2C2OC(CO)C(O)C2O)c(=O)[nH]1 (centres undefined) | i | 1 | -1 | 11 | 5 | -7 | -1 | -1
Fc1ccc(N/N=C2/CCSc3sccc32)c(F)c1 | i | 2 | 4 | 8 | -2 | 5 | 4 | 0
CCC(Sc1ncccc1Nc1ccccn1)C(=O)O (centres undefined) | i | -17 | 9 | . | . | 2 | -1 | 2
CCCc1cc(C(=O)Cc2ccccn2)c(O)cc1O | i | -4 | 8 | -3 | -4 | -7 | 2 | 1
